2A StopGo = High Throughput Screening for Foot and Mouth Disease Virus Antivirals; human cells with a luciferase reporter of 2A StopGo recoding; control for the full effect not named in the record; Potency, µM (highest dose often 57.9 µM), inactives show top-dose signal change, negative = less light; 410,000 tested, 1.2% active; active = well fitted falling curve with a large enough effect; inconclusive = small, poorly fitted or top-dose-only effect; inactive = no such curve, though single readings can be large or run the other way; tested in HEK293T cells; also: nearly all actives have a fitted effect of over 45% in size; luciferase light after 4 h
RE007 growth inh = qHTS Assay for Inhibitors of the HIV-1 protein Vpr | 360,000 tested, 0.21% active | S. pombe RE007 Vpr strain, BacTiter-Glo ATP luminescence, 24 h; control for the full effect not named in the record | AID 651644, 2012 | Potency, µM (highest dose often 92.2 µM), for inactives: at the highest dose activity change, negative = less growth; active = well fitted falling curve with a large enough effect; inconclusive = small, poorly fitted or top-dose-only effect; inactive = no such curve, though single readings can be large or run the other way;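 also: nearly all actives have a fitted effect of over 50% in size; the assay follows cell death caused by Vpr and the record does not say whether a fall means rescue or toxicity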
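Fission yeast RE007 carrying one integrated HIV-1 vpr copy, seeded at OD 0.01 in PMG+AL medium with 23 nL pinned compound. Grown 24 h at 30 degrees; viability read by BacTiter-Glo luminescence after 5 min.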
* marks the source's active call; other numbers are inactive results; ? = inconclusive; [ ] = remark or other dose. % is scaled to controls: 0 for no effect and ±100 for the full control effect; potency is read from the fitted curve at half-maximal effect. Not all compounds are listed. The share of hits here may be higher or lower than overall.

The opening five records, ahead of the listing:
Values in the order: 2A StopGo | RE007 growth inh
Nc1ccn([C@@H]2O[C@H](CNCc3cnc(N4CCOCC4)s3)[C@@H](O)[C@H]2O)c(=O)n1
→ -8% | -14%
Cc1ccc(-c2c(C(=O)c3ccc(Br)cc3)[nH]c(N)c2C(=O)NCc2ccc(Cl)cc2)cc1
→ -19% | 23%
Nc1ccn([C@@H]2O[C@H](CNC(=O)[C@@H](Cc3cn(COCc4ccccc4)cn3)NC=O)[C@@H](O)[C@H]2O)c(=O)n1
→ 0% | 1%
COC(=O)c1cnc(Nc2nc(C(N)c3ccccc3Cl)cs2)nc1C(F)(F)F (stereo not drawn)
→ -25% | 7%[18.4 µM]
CCc1nc2c(OCc3cccc(Cl)c3)cccn2c1N(C)C(=O)CC(C)C
→ -30% | -21%[18.4 µM]

The whole of this part, previewed entries included:
Values in the order: 2A StopGo | RE007 growth inh
Nc1ccn([C@@H]2O[C@H](CNCc3cnc(N4CCOCC4)s3)[C@@H](O)[C@H]2O)c(=O)n1
→ -8% | -14%
Cc1ccc(-c2c(C(=O)c3ccc(Br)cc3)[nH]c(N)c2C(=O)NCc2ccc(Cl)cc2)cc1
→ -19% | 23%
Nc1ccn([C@@H]2O[C@H](CNC(=O)[C@@H](Cc3cn(COCc4ccccc4)cn3)NC=O)[C@@H](O)[C@H]2O)c(=O)n1
→ 0% | 1%
COC(=O)c1cnc(Nc2nc(C(N)c3ccccc3Cl)cs2)nc1C(F)(F)F (stereo not drawn)
→ -25% | 7%[18.4 µM]
CCc1nc2c(OCc3cccc(Cl)c3)cccn2c1N(C)C(=O)CC(C)C
→ -30% | -21%[18.4 µM]
Cc1ccc(NC(=O)c2ncn(CCCN(C)CCc3ccccn3)n2)cc1C
→ -21% | -18%
COCCNC(=O)C1(C)CCCN(C(=O)c2cccc(C(F)(F)F)c2)C1 (stereo not drawn)
→ -21% | 1%
O=C(Nc1ccc2c(c1)OCCO2)C(c1cc2ccccc2o1)N1CCN(C/C=C/c2ccccc2)CC1 (stereo not drawn)
→ 33%[activator] | -10%
CN(Cc1ccccc1)C(=O)c1cccc(NC(=O)Cc2ccc(NC(=O)C3CCCN(C(=O)C4CCCCC4)C3)cc2)c1 (stereo not drawn)
→ -14% | 0%
COc1ccc(C(=O)NCc2ccc(C)cc2)cc1S(=O)(=O)N1CCOCC1
→ 18% | -1%
C[C@@H]1CN([C@H](C)CO)C(=O)CCCn2cc(nn2)CO[C@H]1CN(C)C(=O)CCC(F)(F)F
→ -8% | -1%
COc1ccc(C(c2nnnn2C2CCCCC2)N2CCN(C/C=C/c3ccccc3)CC2)cc1 (stereo not drawn)
→ 8% | -3%
CC(C)C(=O)N1CCC1(C)C(=O)NCc1ccc(F)cc1Cl (stereo not drawn)
→ -1% | 6%[18.4 µM]
CC(C)CC1NC(=O)c2cccnc2-n2c1nc1cc(F)ccc1c2=O (stereo not drawn)
→ 0% | 27%
C#CCOCCOCCOCCNc1nc(N2CCN(C(=O)[C@H]([C@@H](C)O)n3cc(CCCCN)nn3)CC2)nc(N2CCN(C(=O)[C@H](C)n3cc(CCC(=O)O)nn3)CC2)n1
→ -8% | -3%

More compounds:
Values in the order: 2A StopGo | RE007 growth inh
Cc1ccc(F)c(S(=O)(=O)NC(=O)C2(C)CCN2C(=O)CCc2cccs2)c1 (stereo not drawn)
→ 12% | 4%
CC(=Cc1ccccc1)C=C1SC(=S)N(CCCC(=O)Nc2ccc(C(=O)O)cc2)C1=O
→ 18% | 4%[18.4 µM]
CN(CC(=O)Nc1ccc(F)c(F)c1F)C(=O)C1(c2ccccc2)CC1
→ -8% | 16%
COc1cccc(OC)c1C(=O)Nc1ccccc1Sc1ccccc1
→ ? | -1%
OC(c1ccc(F)cc1)c1ncc(-c2ccc3ccccc3c2)[nH]1 (stereo not drawn)
→ -15% | -2%
COCCNC(=O)C1CC(c2ccc(C(F)(F)F)cc2)=NO1 (stereo not drawn)
→ 0% | -3%
CCCCN(C(=O)c1cccc(S(=O)(=O)N(CC)c2ccccc2)c1)c1c(N)n(CCCC)c(=O)[nH]c1=O
→ 5% | 6%
CCCNC(=O)CSc1nnc(NC(=O)C2CC(=O)N(c3ccccc3OC)C2)s1 (stereo not drawn)
→ -18% | -13%
Cc1ccc(OC(C)C(=O)N2CCc3ccccc32)c([N+](=O)[O-])n1 (stereo not drawn)
→ -8% | 14%
CNc1nc(NCc2ccc(C)cc2C)c2sccc2n1
→ ? | ?
Cc1ccccc1S(=O)(=O)N1C[C@H]2CON(C)[C@H]2C[C@H]1c1cccc(N2CCOCC2)c1
→ -21% | -13%
CC1(C(=O)NS(=O)(=O)c2ccc3c(c2)CCO3)CCN1C(=O)CCc1ccc(Cl)cc1Cl (stereo not drawn)
→ -1% | 7%
Cc1ccc(NC(=O)c2ncn(CCCNCCCc3ccccc3)n2)cc1C
→ -20% | -4%
C[C@@H](NCCCn1cnc2c(OCc3ccccc3)ncnc21)c1cccc2ccccc12
→ -26% | ?
CCOC(=O)CN1C(=O)N[C@@H](c2ccco2)C(C(=O)OC)=C1C
→ -5% | 11%

(more compounds)
Values in the order: 2A StopGo | RE007 growth inh
COc1ccc(C(=O)NCC(c2ccco2)N2CCCCC2)cc1S(=O)(=O)Nc1ccc(C)cc1 (stereo not drawn)
→ 27% | -12%
O=[N+]([O-])c1ccccc1C(=Nc1ccccc1)c1c(O)cc(O)cc1O
→ -10% | -18%
CC(C)NC(=O)N(C)C[C@H]1OCc2cnnn2CCCC(=O)N([C@H](C)CO)C[C@@H]1C
→ -8% | -14%
O=C(Cc1ccc(OCc2ccccc2)cc1)NCc1ccc2c(c1)OCO2
→ 4% | 5%
CCc1nc2c(OCc3ccc(S(C)(=O)=O)cc3)cccn2c1N(C)C(=O)c1ccccc1F
→ -12% | -14%
CC(C)NC(=O)c1cc(C2CCCCN2C(=O)OCCF)on1 (stereo not drawn)
→ -9% | 1%
COc1ccc2c(c1)nc(-c1cccc(Br)c1)c(=O)n2C(c1ccccn1)c1nc2ccccc2[nH]1 (stereo not drawn)
→ 0% | -4%
NC(Cc1ccc(Cl)cc1)c1csc(Nc2ccc(C(=O)c3ccccc3)cc2)n1 (stereo not drawn)
→ -13% | -29%
COc1cc(C(O)c2nc(-c3ccc(F)c(Cl)c3)cs2)ccc1F (stereo not drawn)
→ 6% | -21%
CN(C)CCNc1ncnc2c1ncn2[C@H]1CN(Cc2ccc(Cl)cc2)C[C@@H](CO)O1
→ 0% | -18%
O=C1NC(Cc2ccc(O)cc2)c2nc3ccc(F)cc3c(=O)n2-c2cc3ccccc3cc21 (stereo not drawn)
→ ? | -27%
COc1ccc(Cl)c(-c2cc(C(=O)Nc3ccc(F)cc3)[nH]n2)c1
→ 23% | 14%
CCCCN1C(=O)C(CC(=O)NCCN2CCOCC2)CC(C(=O)N(C(C)C)C(C)C)=C1C (stereo not drawn)
→ -23% | 2%
COc1ccc(O)cc1CN1CCN(c2ncc(Cc3ccccc3)cn2)CC1
→ ? | -21%
COc1c(N2C[C@@H]3CCCN[C@@H]3C2)c(F)cc2c(=O)c(C(=O)O)cn(C3CC3)c12
→ -13% | -22%[18.4 µM]

(list continues)
Values in the order: 2A StopGo | RE007 growth inh
CC1=C(C(=O)N(C)C)CC(CC(=O)NC(c2ccccc2)c2ccccc2)C(=O)N1CCC1=CCCCC1 (stereo not drawn)
→ ? | 0%
CN(C)c1ccc(C=Cc2ccnc3c(O)cccc23)cc1
→ 0% | -3%
COc1cccc(COC(=O)CSCC(=O)Nc2ccc(C)cc2)c1OC
→ -1% | 10%
CCCCOCCCNC(=O)C[C@@H]1C[C@@]2(C(=O)OC)CC(C)(C)CC=C2N(Cc2cccc3ccccc23)C1=O
→ -13% | 0%
CC(C)CNC(=O)C1C(=O)Nc2ccccc2C(=O)N1C(C)(C)C (stereo not drawn)
→ -16% | 9%
CC(C)C[C@H]1CNC(=S)N1C[C@H]1CCCN1C[C@H](CC(C)C)N1C[C@H](Cc2ccc(O)cc2)N(CC2CCCCC2)C1=S
→ -20% | 9%
CCCCCCCCN1C(=O)[C@H](CC(=O)N2CCCCC2)C[C@@]2(C(=O)OC)CC(C)(C)CC=C12
→ -14% | ?
COCCCNc1ccn2nc(-c3ccc(CC(C)C)cc3)cc2n1
→ 13% | ?
CCCC[C@@H]1CNC(=O)C(=O)N1CC1CCCCC1
→ -6% | 9%
CSc1ccc(Cn2c(C)c(C(=O)NCc3cccs3)sc2=O)cc1
→ -19% | -2%[18.4 µM]
CC1(c2nnnn2Cc2ccccc2)CCC(=O)N1C1CC1 (stereo not drawn)
→ -28% | 7%
O=C(NC1CCCC1)C1c2ccccc2OCC(=O)N1Cc1ccccc1 (stereo not drawn)
→ -9% | 12%
CCOC(=O)C1=C[C@@H](C(C)C)N(S(=O)(=O)c2ccc(C)cc2)[C@H]1c1ccc(C(C)C)cc1
→ -26% | 7%
Cc1cccc(C)c1NC(=O)C(C1CC1)n1c(-c2ccc(-c3ccccc3)cc2)nc2ccccc21 (stereo not drawn)
→ -8% | 0%
Nc1[nH]c(C(=O)c2ccccc2)c(-c2ccccc2C(F)(F)F)c1C(=O)NCCc1cccs1
→ 0% | -12%

(listing goes on)
Compound | 2A StopGo | RE007 growth inh
CC(C)CNc1ncnc2c1ncn2[C@H]1CN(Cc2ccco2)C[C@@H](CO)O1 | -16% | -16%
CCOC(=O)C1=CCN(S(=O)(=O)c2ccc(C)cc2)C1c1ccccc1 (stereo not drawn) | ? | -9%
C[C@@H]1CN([C@@H](C)CO)C(=O)c2cc(NS(=O)(=O)c3ccc(F)cc3)ccc2O[C@@H](C)CCCCO[C@H]1CN(C)C(=O)NC1CCCCC1 | -24% | 15%
C=C1CC[C@@H]2[C@](C)(CO)[C@H](O)CC[C@@]2(C)[C@@H]1C/C=C1/C(=O)OCC1O (stereo partly drawn) | ? | 10%[18.4 µM]
CCOC(=O)c1csc(NC(=O)CCS(=O)(=O)c2ccc(Cl)cc2)n1 | -22% | -3%
CC(=O)n1cc([C@H]2C=C(C(=O)N3CCOCC3)O[C@@H](OCCCCO)C2)c2ccccc21 | -14% | 3%
Nc1nc2c(ncn2[C@@H]2O[C@H](CNC(=O)[C@H](N)Cc3ccccc3)[C@@H](O)[C@H]2O)c(=O)[nH]1 | -11% | -11%
Cc1ccccc1Oc1ccc2c(c1)[C@@H]1C[C@H](N(C)C(=S)Nc3ccc(F)cc3)[C@H]([C@H](C)O)C(=O)N1CC2 | -20% | 8%
O=c1[nH]c2ccccc2c(=O)c2ccccc12 | -5% | -13%
CCN(c1ccccc1)S(=O)(=O)c1cccc(C(=O)N(C)CC(=O)Nc2ccc(F)c(F)c2F)c1 | -8% | -3%
CCCCN(CCCC)Cc1cc(=O)oc2cc(OC)c(Cl)cc12 | 12% | 7%
COC(=O)[C@@]12C[C@@H](CC(=O)NCCCCc3ccccc3)C(=O)N(CCc3ccc(OC)c(OC)c3)C1=CCC(C)(C)C2 | -16% | -8%
CC1(C)CCCC2(C)C(OCCO)=CC(=O)C=C12 (stereo not drawn) | -1% | -26%
COc1ccc(CN(C)C(=O)c2cccc(S(=O)(=O)NCc3ccccc3)c2)cc1F | -21% | -3%
COc1ccc(C(O)c2ncc(-c3ccccc3OC)[nH]2)cc1 (stereo not drawn) | 2% | 6%

Continuation:
Compound | 2A StopGo | RE007 growth inh
COc1ccc2cc(CN(C)C(=O)CN3C(=O)NC4(CCCC4)C3=O)ccc2c1 | ? | -11%
C[C@@H]1Cn2cnc(C(=O)N[C@@H](C)c3ccccc3)c2C(=O)N1 | -17% | 1%
C[C@H](O)[C@@H]1CN2CCc3c([nH]c4ccccc34)[C@@H]2C[C@@H]1N(C)C(=O)Nc1ccccc1 | -23% | 20%
O=C1c2ccccc2S(=O)N1c1cccc(F)c1 (stereo not drawn) | 8% | 3%
NC(c1csc(Nc2ccccn2)n1)c1ccccc1Cl (stereo not drawn) | 2% | -18%
CCCC(C)(C)C(=O)N1CCC1(C)C(=O)Nc1cccc(OC)c1 (stereo not drawn) | -10% | -6%[18.4 µM]
COc1ccc(-c2ccccc2)c2oc(-c3ccco3)cc(=O)c12 | -24% | -2%
Nc1ccn([C@@H]2O[C@H](C(=O)N[C@H]3c4ccccc4C[C@H]3O)[C@@H](O)[C@H]2O)c(=O)n1 | -4% | 11%
COc1cc(F)ccc1-c1cc(C(=O)NCc2ccc(F)cc2)[nH]n1 | -11% | -6%
CC(=O)Nc1ccc(S(=O)(=O)N[C@@H](C)C(=O)OCC(=O)Nc2ccc3c(c2)OCCO3)cc1 | -9% | 12%
CC1=C(C(=O)N(C)C)CC(CC(=O)NC(c2ccccc2)c2ccccc2)C(=O)N1Cc1ccc(C(C)(C)C)cc1 (stereo not drawn) | -11% | 3%
COc1cc(OC)cc(C2=Cc3ccccc3C(CC(C)=O)N2c2ccc(C#CC3(N)CCCCC3)cc2)c1 (stereo not drawn) | -19% | 18%
COc1cc(CNC[C@H]2O[C@@H](n3ccc(N)nc3=O)[C@H](O)[C@@H]2O)ccc1OCc1cccc(Cl)c1 | -3% | -17%
CCCCN1C(=O)C(CC(=O)NCc2cccc3ccccc23)CC(C(=O)N(CC)CC)=C1C (stereo not drawn) | -13% | -8%
COc1ccc(CCNC(=O)c2ccccc2C(=O)NCCc2ccc(OC)cc2)cc1 | 12% | -2%
CNc1nc(Nc2ccc(C(=O)OC)cc2)c2sccc2n1 | -24% | -28%
Cc1ccsc1C(=O)N1CCCC(C)(C(=O)O)C1 (stereo not drawn) | -8% | -13%[18.4 µM]
COc1cc(-n2c(C)nc3ncn(-c4ccccc4)c3c2=O)cc(OC)c1OC | -13% | 1%

Screening results as filed in PubChem BioAssay.
